Biofilm kill mix = mixtures killing C. albicans biofilm | C. albicans biofilm persisters + clotrimazole, fluorescence viability; primary screen in compound mixtures of four per well | inhibition, % at 7.6 µM | 0.02% of 120,000 active | AID 1242;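 active = inhibition above 30.3% in the primary screen of four-compound pools, then above 30% when the compound was retested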;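 note: compounds exposed to preformed 24 h biofilms for 48 h; the number belongs to the whole pool; some results filed as inactive read as strong as hits; inactives centre near 12; 0% = biofilm with clotrimazole alone and 100% = kill control; retested singly at about 60 µM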
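System: C. albicans CAF4-2 wild-type biofilms; Medium: RPMI/MOPS medium, pH 7.0; Reagent: Clotrimazole, 50 µg/mL; Times: biofilm formation 24 h, compound exposure 48 h, 37 °C; Detection: 2-h Alamar Blue fluorescence, 535/590 nm excitation/emission; Evaluation: percent inhibition of biofilm viability.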
An asterisk follows results filed as active.

#	SMILES	Biofilm kill mix
1	C#CCN1C(=O)C(O)(CC(=O)/C=C/C=C/c2ccccc2)c2ccccc21 (stereo unspecified)	17
2	O=[N+]([O-])c1ccccc1S(=O)(=O)Oc1ccc(C(=S)N2CCOCC2)cc1	23
3	O=C(CO/N=C1\CCCc2nonc21)Nc1ccccc1Cl	11
4	CCCN(CCC)S(=O)(=O)c1ccc(C(=O)O)cc1	9
5	Cc1cc(NS(=O)(=O)c2ccc(NC(=O)CSc3nc4ncc(Cl)cc4[nH]3)cc2)nc(C)n1	14
6	O=C1C(=O)N(C2CCCC2)C(=O)N1Cc1c(F)cccc1Cl	10
7	Cc1ccc(C(=O)NC(=S)NNC(=O)COc2ccccc2C)cc1	10
8	O=S(=O)(Cc1ccccc1Cl)NCc1ccccc1	9
9	CCc1ccccc1NC(=S)NN	12
10	Cc1cc(=O)n2c(n1)SCOC2	14
11	O=C(Nc1ccccc1F)c1ccccc1-c1ccc(C(F)(F)F)cc1	8
12	COc1cccc(NC(C(=O)Nc2cccc(C(C)=O)c2)c2ccccc2)c1 (stereo unspecified)	10
13	O=C(/C=C/c1cccnc1)c1ccccc1O	18
14	COc1ccc(NC(=S)NCC(c2ccco2)N2CCCC2)cc1 (stereo unspecified)	24
15	Cc1ccc2nc(SC(C)C(=O)N3CC(C)OC(C)C3)[nH]c2c1 (stereo unspecified)	6
16	CCc1ccc(S(=O)(=O)NCCc2cn3cccc(C)c3n2)s1	15
17	Cc1ccc(O)c(CNc2cccc3cccnc23)c1	5
18	C/C(=N/OC(=O)c1ccccc1)c1oc(C)nc1C	11
19	Cc1ccc(CNC(=O)c2cc(C)nn2-c2ccccc2)cc1	24
20	Cc1nc(Cl)sc1C(=O)Nc1ccc(Cl)cc1	12
21	COc1cc(Cl)c(C)cc1NC(=O)CCCn1c(=O)oc2ccccc21	6
22	COC(=O)c1ccc(NC(=O)CCS(=O)(=O)c2ccc(Br)cc2)cc1	13
23	O=C(NC1CCCCCCC1)c1cc(-c2ccccn2)nc2ccccc12	5
24	COc1ccc(/C=C(/NC(=O)c2ccc(C)cc2)C(=O)NCC2CCCO2)cc1 (stereo unspecified)	20
25	CC1CCC(NC(=O)COc2ccc(C(=O)c3ccccc3)cc2)CC1 (stereo unspecified)	2
26	Cc1cccc2nc(CSc3nc4ccc([N+](=O)[O-])cc4[nH]3)cn12	3
27	COc1cc(OC)c2c(c1)C(=O)OC2OC (stereo unspecified)	1
28	Cc1ccc(NCc2ccncc2)c(Br)c1	25
29	COCc1cc(=O)n2[nH]c(C(C)(C)C)cc2n1	9
30	Cn1cccc1C(=O)OCC(=O)Nc1ccc2c(c1)OCO2	25
31	C=CCOC(=O)C1=C[C@@H](c2coc3ccccc3c2=O)C[C@@H](OCc2ccc(CO)cc2)O1	17
32	CC(c1ccco1)N(C(=O)c1ccccc1NS(=O)(=O)c1ccc(Cl)cc1)c1ccccn1 (stereo unspecified)	23
33	O=C(Nc1ccc(Cl)cc1Cl)c1csc(-c2cccnc2)n1	8
34	CCO[C@@H]1OC(C(=O)NCc2nc3ccccc3[nH]2)=C[C@H](C2CC2)[C@H]1CCCO	4
35	Cc1ccc(/C=N/Nc2nc(C)cc(C)n2)cc1	15
36	O=C(O)c1cncc(C#CCC2CCCCC2)c1	9
37	Cc1ccc(Nc2nc(Cl)c(C=O)s2)cc1Cl	5
38	Cc1cc(C(=O)O)ccc1-c1ccc(CO)o1	13
39	Cc1c(NC2=CC(=O)CC(C)(C)C2)ccc([N+](=O)[O-])c1C	20
40	CCn1c(-c2csc3c2CCCC3)n[nH]c1=S	4
41	Cc1noc(C)c1/C=N/Nc1ccc2ccccc2n1	1
42	CC1(C)CC(N2CCCCC2)=CC(=[N+]2CCCCC2)C1	16
43	S=C(NCCN1CCOCC1)NC1CCCC1	9
44	CN1CCN(CC(=O)Nc2nnc(-c3cccs3)s2)CC1	13
45	CN(C)/C=C(\C=O)c1onc(-c2ccccc2Cl)c1C#N	0
46	CCC(=O)Nc1ccc(C=C(C(C)=O)C(C)=O)cc1	24
47	COc1ccccc1NC(=O)N1CCN(c2ccc3nnc(-c4ccc(F)cc4)n3n2)CC1	26
48	CCc1cc(C(c2ccccn2)N2CCN(C)CC2)c(NC(=O)c2ccccc2)s1 (stereo unspecified)	0
49	CCOC(=O)C1=C(c2ccccc2)OC(N)=C(C#N)C1c1ccncc1 (stereo unspecified)	14
50	CC(OC(=O)CCc1nc2ccccc2c(=O)[nH]1)C(=O)Nc1ncc(Cl)cc1Cl (stereo unspecified)	2
51	O=C(Nc1ccc(N2CCN(C(=O)c3cccs3)CC2)cc1)c1cccnc1	24
52	COC(=O)c1ccc(C(NC(=O)OCc2ccccc2)/C(F)=C/[C@@H](C)C(=O)NCc2ccc(-c3ccccc3)cc2)cc1 (stereo partly specified)	9
53	CCOc1ccc(CCNC(=O)C2=C(C)C(=O)OC23CCC(C)CC3)cc1 (stereo unspecified)	8
54	COC(=O)c1ccc(/C=N/NC(=S)NC(C)C)cc1	1
55	CCOc1ccc(C(CC(=O)O)NC(=O)C(Sc2ccccc2)c2ccccc2)cc1 (stereo unspecified)	7
56	C/C=C/C(=O)Nc1ccc(N2CCN(c3ccc(C(F)(F)F)cn3)CC2)nc1	20

(listing goes on)
#	SMILES	Biofilm kill mix
57	CCN(CC)C(=O)C12CC3CC(CC(Br)(C3)C1)C2	9
58	CC(C)[C@H](NC(=O)c1ccccc1)C(=O)OCC(=O)N1CC(=O)Nc2ccccc21	3
59	CCOC(=O)c1ccccc1NC(=S)N1CCCCC1	15
60	CN1CCN(/N=C/c2ccc(Cl)c(Cl)c2)CC1	3
61	CC1(C)CC(NC(=S)NCc2ccco2)CC(C)(C)N1	8
62	CCCCC(=O)N/N=C/c1cc([N+](=O)[O-])ccc1N1CCOCC1	-6
63	Cc1cc(C(=O)Nn2c(-c3ccc(Br)cc3)nc3ccccc3c2=O)ccc1[N+](=O)[O-]	12
64	Cc1ccnc(NC(=O)CCCc2ccccc2)c1	15
65	COc1ccc2[nH]c(=O)c(CN(Cc3cccs3)C(=S)NCC3CCCO3)cc2c1 (stereo unspecified)	14
66	Cc1ccc(CNC(=O)c2cnccn2)cc1	4
67	CCC(=O)Nc1c(C)nn(-c2ccc(C)c(C)c2)c1C	5
68	COC(=O)c1ccccc1NC(=O)NCCc1ccc(OC)c(OC)c1	-2
69	CN1/C(=C\C=C(/C#N)C(=O)Nc2ccc(Cl)cc2)C(C)(C)c2ccccc21	9
70	CCCc1nc(-c2cc3ccccc3[nH]c2=O)no1	3
71	COc1ccc(Cc2nnc(NC(=O)CSc3ccccc3)s2)cc1OC	13
72	O=S(=O)(O)c1nc2ccccc2n1Cc1cccc2ccccc12	7
73	C#CCOCCOCCOCCNc1nc(N2CCN(C(=O)C(Cc3ccc(O)cc3)n3cc(C(N)CC(C)C)nn3)CC2)nc(N2CCN(C(=O)C(Cc3cc4ccccc4[nH]3)n3cc(C(N)Cc4ccc(O)cc4)nn3)CC2)n1 (stereo unspecified)	11
74	CN(CC(=O)N1CCN(c2ccc(F)cc2)CC1)S(=O)(=O)c1ccc2c(c1)c(=O)n(C)c(=O)n2C	10
75	CC12CCC(C(=O)N3CCCCC3)([C@H](Br)C1=O)C2(C)C (stereo partly specified)	11
76	N#Cc1c(NC(=O)C2CC(c3ccccc3O)=NO2)sc2c1CCC2 (stereo unspecified)	8
77	CCOc1cc(-c2c(C#N)c(N)nc3c2CCc2ccccc2-3)ccc1O	14
78	COc1ccc(CCN(C)C(=O)C2CCN(Cc3cccc(OC)c3OC)CC2)cc1OC	-8
79	Cc1cccc(CSc2nc3c(cc2C#N)CCC3)c1	12
80	COC(CNC(=O)CNC(=S)N(Cc1ccccc1)Cc1cccs1)OC	22
81	Cc1ccc(C)c2sc(NC(=O)c3ccc(N4C(=O)CCC4=O)cc3)nc12	2
82	Cc1cccnc1NC(=S)NCCc1ccccc1	27
83	COCc1cc(=O)[nH]c(Sc2c(-c3ccccc3)c3ccc(Cl)cc3[nH]c2=O)n1	7
84	COC(=O)Cc1ccc(NC(=O)c2ccccc2Cl)cc1	16
85	CCN(CC)S(=O)(=O)c1ccc(OC)c(NC(=O)c2cn(CC)c3nc(C)ccc3c2=O)c1	12
86	N=C1S/C(=C\c2cn[nH]c2-c2ccc(F)cc2)C(=O)N1c1ccccc1F	3
87	Cc1ccc(OC(=O)c2ccc(C)c([N+](=O)[O-])c2)cn1	36
88	O=C1CNC(=S)N1c1nc2ccccc2s1	13
89	O=C(c1cccc([N+](=O)[O-])c1)c1ccc2c(c1)C(=O)NC2=O	3
90	Cc1nn(C)cc1/C=N/NC(=O)CSc1ccccn1	26
91	CCCCNc1ccc(S(N)(=O)=O)cc1[N+](=O)[O-]	11
92	COc1cccc(CC2(CO)CCCN(Cc3ccc(-c4ccco4)cc3)C2)c1 (stereo unspecified)	10
93	CCOc1ccc(C(=O)C(CN2CCOCC2)c2ccccc2)cc1 (stereo unspecified)	21
94	CN(C)/C=C/C=C1C(=O)CCCC1=O	20
95	COC(=O)[C@@H]1C[C@@]2(O)[C@H](O)[C@H](O)[C@H](O)C[C@H]2N1Cc1ccc(C(F)(F)F)cc1	1
96	CCCCCCc1cc2cc(C(=O)Nc3cccc(OC)c3)c(=O)oc2cc1O	11
97	C/C(=N\NC(=S)Nc1ccccc1C)C1Cc2ccccc2C(=O)O1 (stereo unspecified)	9
98	Cc1ccnc(SCC(=O)c2ccc(Br)s2)n1	13
99	CC(C)n1nnc2c(=O)oc3ccccc3c21	17
100	O=C(C1=C(O)C(=O)N(CCc2ccccc2)C1c1cccs1)c1ccco1 (stereo unspecified)	2
101	Cc1ccc(C23CC4CC(CC(C(=O)OCC(=O)NC5CCS(=O)(=O)C5)(C4)C2)C3)cc1 (stereo unspecified)	9
102	C=C(C)C(=O)Nc1cccc(C2=NOC3(C2)C[C@@H](C(N)=O)N(C(=O)CC(c2ccccc2)c2ccccc2)C3)c1 (stereo partly specified)	14
103	Cc1ccsc1/C=C(\C#N)C(=O)NCCCN1CCOCC1	10
104	O=C(Nc1nnc(-c2ccccc2)o1)c1cc(-c2cccs2)nc2ccccc12	11
105	COc1ccc(/C=C2\SC(=S)N(CC(=O)OCC(=O)Nc3ccc(C)cc3Cl)C2=O)cc1	7
106	Cc1nn(-c2ccccc2)c(N2CCCC2)c1C=O	8
107	CCOC(=O)CNC(c1ccccc1)c1cc(Br)ccc1NC(=O)CCN1CCOCC1 (stereo unspecified)	17
108	Cc1ccc(S(=O)(=O)Oc2ccc(/C=C(/NC(=O)c3ccccc3)C(=O)O)cc2)cc1	13
109	COc1ccc(C(=O)CNc2ccc(C)cc2C)cc1	21
110	Nc1nnc(SCc2ccc(Cl)cc2)s1	12
111	CC(C)(C)S(=O)(=O)/C(C#N)=C/c1sccc1C1OCCO1	16
112	CCC(C)[C@H](NC(=O)N1CCC(C)CC1)C(=O)O (stereo partly specified)	29

Other structures follow.
#	SMILES	Biofilm kill mix
113	O=C(CSc1nnc(SCc2ccc(Cl)cc2)s1)N/N=C/c1ccc(Cl)cc1Cl	11
114	C=CCc1c(C)nc(N2CCSCC2)[nH]c1=O	15
115	COc1ccccc1CN(C)c1nnnn1-c1ccccc1	46
116	Nc1cccc2c1C(=O)N(C(=O)c1ccco1)C2=O	17
117	CCC(Sc1nccn1C)C(=O)Nc1ccc(Cl)cn1 (stereo unspecified)	23
118	Cc1ccc(CSc2nnc(-c3cccc(S(=O)(=O)N4CCOCC4)c3)n2CC(C)C)cc1	7
119	Cc1ccc(SCC(=O)c2c(C)nc3cc(C)ccn23)cc1	9
120	COCCCNC(=O)CN(CCc1ccccc1)S(=O)(=O)c1ccc(C)cc1	21
121	CCn1ncc(CN2CCN(Cc3cccc(OC)c3)C(CCO)C2)c1C (stereo unspecified)	6
122	Cc1[nH]c2ccccc2c1NC(=O)CN1CCN(C(=O)c2ccco2)CC1	6
123	Cc1ccc(OCCOc2cccc3ccc(C)nc23)c([N+](=O)[O-])c1	-16
124	Cc1ccc(N/C=C2\C(=O)C3(C)CCC2C3(C)C)cc1C (stereo unspecified)	18
125	CC1(C)CC(=O)C2=C(C1)NC1=C(C(=O)c3ccccc31)C2c1cccnc1 (stereo unspecified)	-7
126	COc1ccccc1NNC(=O)C(O)(c1ccccc1)c1ccccc1	19
127	CCCOc1ccc(N2C(=O)CC(N(Cc3ccco3)C(=O)CCC(=O)O)C2=O)cc1 (stereo unspecified)	15
128	O=C(CN1C(=O)/C(=C/c2c(F)cccc2Cl)Oc2ccccc21)NCc1ccco1	10
129	Cc1cc(C)cc(C(=O)NC(=S)Nc2ccc3[nH]c(=O)[nH]c3c2)c1	15
130	Cc1cccc(C(=O)Nc2ccc(O)c3c(=O)cc(-c4ccccc4Cl)oc23)c1	7
131	CCC(=O)NC1CCN(C(=S)NC)CC1	18
132	CC1=CSC2=NC(=O)/C(=C\c3cccn3-c3ccccc3)C(=N)N12	10
133	N#CC1=C(S)N(c2ccc(F)cc2)C2(CCCCC2)NC1=O	3
134	O=C(NCc1ccccn1)C(=O)C1C(=O)Nc2ccccc21 (stereo unspecified)	10

High-throughput results: PubChem BioAssay, PCMD

Not all compounds are listed; rates above refer to the full screens.
